Assay outcomes (PubChem)
gsp antagonist = qHTS for Antagonists of gsp, the Etiologic Mutation Responsible for Fibrous Dysplasia/McCune-Albright Syndrome: qHTS; gsp-mutant cells, cAMP HTRF, 30 min; control for the full effect not named in the record; Potency, µM (doses to about 76.9 µM), without a hit: at the highest dose activity change, negative = inhibition, actives largely listed as inhibitors; 340,000 tested, 0.4% active; AID 624288, 2012; active = falling curve of any shape with a large fitted effect; inconclusive = falling curve, mostly with a smaller effect; inactive = flat or rising curve; cell line not stated here;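 further: intracellular cAMP measured with PDE inhibitor Ro 20-1724 present during compound exposure; potency means the concentration at half of the fitted maximal effect; on the % scale 0 is the no-effect control and ±100 the full control effect; nearly all actives have a fitted effect of over 65% in size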
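Cells in G418 medium, seeded 16-24 h, 37C; buffer exchange to DPBS + 1 mM CaCl2, 0.5 mM MgCl2, 0.05% BSA; cpds in DMSO + […] (300 uM stock), 30 min 37C; HTRF cAMP detection.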
Sfp inh = qHTS Assay for Inhibitors of Bacillus subtilis Sfp phosphopantetheinyl transferase (PPTase) | 4'-phosphopantetheinyl transferase ffp (Bacillus subtilis), Q9F4F7 | Biochemical Sfp PPTase activity, qHTS | Potency, µM, for the others: max response, negative = inhibition, usual class: inhibitors | 310,000 tested, 3.5% active | AID 1490, 2009; active means well fitted inhibition curve with a large enough effect; inconclusive means small, poorly fitted or top-dose-only effect, or another doubt; inactive means no such curve, though single readings can be large or run the other way;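 further: the enzyme is Sfp with the accession as filed and its product quenches rhodamine fluorescence; potency means the concentration at half of the fitted maximal effect; 0% = enzyme reaction without inhibitor and -100% = no enzyme wells; top concentration of the series not given in the record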
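With Hepes-Na pH 7.6 buffer containing 10 mM MgCl2, Sfp (15 nM) modified BHQ-2-YbbR (12.5 uM) using rhodamine-CoA (5 uM). Two reads 30 minutes apart at 525/598 nm yielded each well's rate.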
Menin-MLL FL inh = qHTS Assay for Inhibitors Targeting the Menin-MLL Interaction in MLL Related Leukemias: Competition With Fluorescein Labeled MLL-derived Peptide. AID 1766, 2009. FP activity change, % at 61.4 µM. Fluorescence polarization, fluorescein-MLL peptide displacement from menin. 290,000 tested, under 10 active; inconclusive = falling polarisation curve, or a change in total fluorescence; inactive = total fluorescence flat and polarisation flat or rising; no compound was filed as active; the % refers to the polarisation; negative = inhibition;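 further: % of control where 0% means no effect; inhibitors lower the polarisation; unlabelled MLL peptide was the positive control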
ClpP mod = qHTS Assay for Activators of ClpP | ATP-dependent Clp protease proteolytic subunit (Bacillus subtilis (strain 168)), P80244 | purified B. subtilis ClpP, FRET peptide cleavage, 20 min | Potency, µM (series often up to 57.5 µM), inactives show at the highest dose activity change, negative = active | 340,000 tested, 1.9% active; active = well fitted falling curve with a large enough effect; inconclusive = small, poorly fitted or top-dose-only effect; inactive = no such curve, though single readings can be large or run the other way; further: potency means the concentration at half of the fitted maximal effect; the source files actives as falling curves though it sought activators and does not explain the sign; nearly all actives have a fitted effect of over 65% in size; many hits overshoot -100%
Target sequence (P80244 whole entry, looked up): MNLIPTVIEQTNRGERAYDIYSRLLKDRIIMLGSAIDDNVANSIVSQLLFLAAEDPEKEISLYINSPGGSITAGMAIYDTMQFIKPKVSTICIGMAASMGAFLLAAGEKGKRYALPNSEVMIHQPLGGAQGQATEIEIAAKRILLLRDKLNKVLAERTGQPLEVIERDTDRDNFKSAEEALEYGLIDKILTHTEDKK
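FRET quenching reversal measured ClpP activation: 10 microg/mL B. subtilis ClpP at pH 8 with the FRET-FV decapeptide, read at 430 nm after 320 nm excitation. The 20-min minus 0-min signal was scaled between DMSO/no-enzyme wells and ADEP (5.8 microM final).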
PINK1 modulator = A Quantitative High throughput Screen to Identify Chemical Modulators of PINK1 Expression; 410,000 tested, 0.2% active; AID 624263, 2012; PINK1 immunofluorescence, high-content cytometry, 24 h; Potency, µM (series often up to 76.6 µM), inactives show top-dose activation (PINK1 increase), hits mostly activators; active = well fitted activation curve with a large enough effect; inconclusive = small, poorly fitted or top-dose-only effect; inactive = flat fitted curve, though single readings scatter; cell line not stated here;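 further: potency means the concentration at half of the fitted maximal effect; % of control where 0% means no effect; nearly all actives have a fitted effect of over 65% in size; a mitochondrial uncoupler was the plate control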
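Readout is PINK1 immunofluorescence, quantified alongside mitochondrial, cell and nuclear markers by laser-scanning microplate cytometry. Cells from a stable line were exposed to compound titrations (5 concentrations) for 24 hours, with CCCP controls.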
gsp ag = qHTS for Agonist of gsp, the Etiologic Mutation Responsible for Fibrous Dysplasia/McCune-Albright Syndrome: qHTS; AID 624287, 2012; 340,000 tested, 0.13% active; gsp mutant cells, cAMP HTRF, 30 min; control for the full effect not named in the record; Potency, µM (highest dose often 76.9 µM), without a hit: at the highest dose activation (cAMP increase), usual class: activators; active = well fitted activation curve with a large enough effect; inconclusive = small, poorly fitted or top-dose-only effect, or another doubt; inactive = no such curve, though single readings can be large or run the other way; cell line not stated here;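 further: phosphodiesterase inhibitor Ro 20-1724 added with compounds to block cAMP breakdown; potency means the concentration at half of the fitted maximal effect; nearly all actives have a fitted effect of over 60% in size; about a fifth of the inactives were tested at one dose only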
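Cells in DMEM/10% FBS with G418 were pretreated with compounds in DMSO plus […] (300 uM stock) for 30 min at 37C. cAMP was measured by HTRF (cAMP-d2 plus anti-cAMP antibody-K) after 30 min at room temperature.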
D2 agonist = Beta-Arrestin HTS for Positive Allosteric Modulators of the Human D2 Dopamine Receptor: Agonists; activation, % (test concentration not listed); 360,000 tested, 0.084% active; D(2) dopamine receptor (Homo sapiens), P14416; AID 624465, 2012; DiscoveRx PathHunter D2 beta-arrestin, luminescence, 90 min; 100% = 57 uM dopamine signal; in the data active = activation above about 40%; inconclusive = about 15% to 40%; inactive = below about 15%; further: compound concentration not given in the record; the text of the record calls up to 30% inactive
Target sequence (P14416 whole entry, looked up): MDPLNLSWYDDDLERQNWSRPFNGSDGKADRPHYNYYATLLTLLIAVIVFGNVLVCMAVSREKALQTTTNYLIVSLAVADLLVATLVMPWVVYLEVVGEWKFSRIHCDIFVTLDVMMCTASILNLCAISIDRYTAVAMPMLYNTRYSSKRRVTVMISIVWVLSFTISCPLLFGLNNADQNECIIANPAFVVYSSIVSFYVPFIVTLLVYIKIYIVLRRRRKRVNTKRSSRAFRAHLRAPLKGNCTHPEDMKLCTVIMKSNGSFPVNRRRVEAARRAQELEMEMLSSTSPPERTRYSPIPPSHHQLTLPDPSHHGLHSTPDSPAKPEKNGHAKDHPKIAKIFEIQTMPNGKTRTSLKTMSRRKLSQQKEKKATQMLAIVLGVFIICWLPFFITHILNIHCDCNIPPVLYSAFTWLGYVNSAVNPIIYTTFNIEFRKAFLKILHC
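DiscoveRx PathHunter D2 beta-arrestin cells (2,100/well) attached overnight, then compound-stimulated 90 min at 37 C in HBSS/10 mM HEPES/0.1% Tween-20 buffer; beta-galactosidase complementation read by luminescence after 1 h at ambient temperature. Dopamine 57 uM final (EC100) as control.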
Active calls of the source: *; ? = inconclusive; . = not tested or not shown; & = joins results of further samples; [ ] = another dose, or the depositor's remark.

SMILES	gsp antagonist	Sfp inh	Menin-MLL FL inh	ClpP mod	PINK1 modulator	gsp ag	D2 agonist
O=C(N/N=C/c1ccc(Cl)c([N+](=O)[O-])c1)c1cc(-c2ccccc2)nc2ccccc12	-17%	14%	-4.8	-3.7%	-1.4%	1%	-10.0
CC(C)(C)Cc1nnc(NC(=O)c2ccc3c(c2)OCO3)s1	2%	-99%	.	.	-0.2%	-1%[15.4 µM]	-1.9
COc1ccc(S(=O)(=O)N2CCOCC2)cc1NC(=O)CSc1n[nH]c(=O)n1C1CC1	12%	10%	3.4	1.6%	1.6%	-12%	-0.1
Cc1ccc(S(=O)(=O)CCC(=O)OC(C)C(=O)c2c(C)[nH]c3ccccc23)cc1 (configuration not stated)	9%	-1%	3.9	1.6%	-2.3%	?	-5.3
CC1CCC2(CC1)NC(=O)N(CC(=O)Nc1cccc(S(=O)(=O)N3CCOCC3)c1)C2=O (configuration not stated)	7%	2%	-0.5	-2.5%	1.5%	18%	-0.3
CC(C)CC(=O)Nc1c2c(nn1-c1cccc(Cl)c1)CS(=O)C2 (configuration not stated)	19%	-7%	-7.7	2.4%	1.1%	2%[15.4 µM]	-1.4
Cn1c(=O)n(C)c2cc(N3CCCCC3)c(NC(=O)c3ccccc3)cc21	-4%	0%	.	-1.5%	1.5%	7%	1.0
c1ccc2c(c1)nc1sccn12	13%	9%	1.0	-1.1%	-0.2%	-23%	1.8
O=C(NCCC1CCCCN1S(=O)(=O)c1ccccc1)C(=O)NC1CC1 (configuration not stated)	-6%	.	.	-3.1%	4.3%	-42%[inhibitor]	0.3
COc1ccc(C2CC(c3ccccc3)=NN2c2ccc(Cl)c(C(=O)O)c2)cc1 (configuration not stated)	-30%	56µM*	-0.2	.	-0.5%	?	3.7
O=C1CC(c2ccccc2)n2nc(NC(=O)C3CCCO3)nc2N1 (configuration not stated)	7%	16%	2.6	-1.5%	-1.2%	-1%	-1.0
COc1ccc(-n2c(-c3ccc(Br)cc3)c[n+]3c2CCc2ccccc2-3)cc1	2%	12%	-6.9	-4.9%	28µM*	21%	-6.2
CCCC(=O)NC(=S)Nc1cc(-c2nc3ncccc3o2)ccc1C	0%	?	-2.5	9.3%	4.3%	-12%	-0.9
COC(=O)[C@]1(C)N[C@H](CN(C)S(=O)(=O)c2ccc(C)cc2)[C@@H]2C(=O)N(Cc3ccccc3)C(=O)[C@@H]21	-7%	.	.	1.6%	0.2%	.	-1.3
CC12CC3(C)CC(C)(C1)CC(C(=O)NC1=NCCS1)(C2)C3	-13%	.	.	-0.2%	8.0%	3%	-3.2
COc1ccc(NC(=O)C(=O)NCCC2CCCCN2S(=O)(=O)c2ccc(F)cc2)cc1 (configuration not stated)	6%	.	.	.	-3.2%	-93%[15.4 µM]	?
O=C(Nc1ccc2c(c1)nc1n2CCSC1)c1ccccc1	1%	4%	?	1.0%	1.1%	-6%	-3.6
CCN(C(=O)COC(=O)c1ccc(-n2c(C)ccc2C)cc1)c1c(N)n(Cc2ccccc2)c(=O)[nH]c1=O	9%	.	.	-3.5%	-0.9%	6%	0.6
CC(C)Nc1nc(Cl)nc(N(C#N)CN2C(=O)c3ccccc3C2=O)n1	5%	-11%	2.5	-3.3%	-3.2%	-8%[15.4 µM]	-4.7
Oc1ccc(/C=N/Nc2cccc3cccnc23)c(O)c1	-21%	?	-1.6	0.4%	-3.4%[38.3 µM]	-17%	8.2
Cc1ccccc1C(=O)Oc1ccc(Cl)cc1C(=S)N1CCOCC1	-6%	-1%	.	-7.0%	0.4%	3%[15.4 µM]	1.1
CC(=O)Nc1cccc(-c2ccnc3c2CC(C)(C(=O)NCc2ccc(N(C)C)cc2)O3)c1 (configuration not stated)	.	.	.	-1.5%	6.3%	.	2.2
O=C(O)CCn1nc(-c2ccc(F)cc2)cc(Cc2ccccc2)c1=O	-15%	20%	4.1	0.1%	0.5%	-1%[15.4 µM]	0.5
CCOC(=O)c1cnc(SCc2nc(N)nc(Nc3ccc(OC)cc3)n2)nc1N	5%	4%	4.4	-4.7%	.	-1%	1.9
Cc1ccc2cc(CN(Cc3ccco3)C(=O)NC3CCCCC3)c(=O)[nH]c2c1C	?	-10%	-0.5	-17%	2.1%[38.3 µM]	-26%	-3.4

Next results follow:
SMILES	gsp antagonist	Sfp inh	Menin-MLL FL inh	ClpP mod	PINK1 modulator	gsp ag	D2 agonist
CCN1CCN(C(=O)c2cc(-c3ccco3)nc3ccccc23)CC1	15%	.	.	3.9%	-0.3%	-32%[inhibitor]	-0.7
Cc1ccccc1OCC(=O)OCC(=O)Nc1cc(S(C)(=O)=O)ccc1Cl	11%	.	.	-4.5%	2.1%	-63%[inhibitor]	0.0
CCOC(=O)/C(C#N)=N/Nc1ccc(S(=O)(=O)Nc2cc(OC)nc(OC)n2)cc1	-9%	.	.	0.6%	0.2%	?	-6.7
COc1cc(CN2CCN(c3ccccc3F)CC2)c([N+](=O)[O-])cc1OC	-11%	-58%	0.4	-5.6%	-0.5%	?	-0.1
COC(=O)c1ccc(C(C(=O)NC2CCCCC2)N(C(=O)Cc2cccs2)C2CC2)cc1 (configuration not stated)	2%	28%	2.0	-1.9%	.	?	1.9
Cc1cc(C(=O)OCC(=O)NC2CC2)c2ccccc2n1	2%	.	.	-27%	-1.3%	-30%[inhibitor]	-7.3
Cc1ccc(OCCn2c(NC(=O)c3ccco3)nc3ccccc32)cc1	7%	11%	5.5	34%	20%	9%	-5.5
CNc1nnc(-c2cc3cc(Cl)ccc3oc2=O)s1	-5%[15.4 µM]	6%	7.4	-6.7%	2.1%	28%	-3.6
CCc1ccc2c(c1)C(=O)C[C@]1(CCC[C@H](C)C1)O2	0%	.	.	3.8%	15%	.	-3.1
Cc1ccc(C)c(NC(=O)CN(C)C(=O)c2cc(S(=O)(=O)N3CCOCC3)ccc2N2CCCC2)c1	?	12%	.	2.1%	-0.5%	6%	-6.3
CCCNC(=O)c1cc(S(=O)(=O)N2CCCCC2)ccc1N1CCOCC1	9%	.	.	1.1%	8.9%	-18%	-4.3
CCCCN(CC)CCNC(=O)c1cc2c(=O)n(CC)c3ccccc3c2s1	8%	11%	-9.4	3.6%	-2.4%&1.5%	?	-1.9
CCOC(=O)CS(=O)(=O)c1ccc(O)cc1	4%	21%	0.9	.	-0.7%	-6%[15.4 µM]	2.3
CCOC(=O)c1c(-c2ccco2)csc1N	3%	32µM*	5.4	-1.0%	3.0%	1%	-4.1
COc1cc(/C=N/N2CCN(c3ccccc3)CC2)ccc1OC(C)=O	10%	17%	2.9	0.0%	1.4%	?	-3.6
Cc1ccc(-c2ccc(/C=N/O)o2)cc1[N+](=O)[O-]	3%	3%	-0.2	1.1%	-1.1%	-62%	-3.5
CCOc1ccc2nc(N3CCC(C(=O)N4CCN(c5ccccn5)CC4)CC3)sc2c1	?	4%	-1.2	?	7.7%	7%	0.1
C[N+](C)(C)CCOC(=O)CCC(=O)OCC[N+](C)(C)C	1%	22%	0.4	0.3%	0.8%	.	-4.6
Cc1csc(NC(=O)CSc2nnc(-c3ccc(Cl)cc3)n2N)n1	0%	17%	-0.8	2.0%	2.2%[38.3 µM]	-1%	0.5
C=CC(=O)Nc1sc2c(c1C(N)=O)CCCC2	-5%	.	.	0.1%	7.2%	.	-5.3
CN(Cc1ccc(Cl)cc1)C(=O)c1cc(S(=O)(=O)N2CCOCC2)ccc1N1CCCC1	1%	.	.	-3.3%	1.8%	15%	-4.0
CCCSc1nc(C)c(C(C)=O)cc1C#N	-11%	13%	2.4	-0.3%	2.8%	-23%	0.1
O=C1C(Cc2c[nH]c3ccccc23)NC(=S)N1C1CCCCC1 (configuration not stated)	-1%	3%	0.1	.	3.2%	7%[15.4 µM]	-11
O=C(NCc1nnc(SCC(=O)N2CCN(c3ccccc3)CC2)o1)c1c(F)cccc1Cl	-6%	15%	4.0	0.7%	0.1%	?	-2.0
CCCOc1ccc(C(O)(CCC)CCN2CCCCC2)cc1 (configuration not stated)	7%	17%	-0.5	-1.9%	-0.1%	-46%[inhibitor]	1.3

(cont.)
SMILES	gsp antagonist	Sfp inh	Menin-MLL FL inh	ClpP mod	PINK1 modulator	gsp ag	D2 agonist
CC(/C=N/NC(=O)c1ccccn1)=C\c1ccco1	-7%	-24%	2.5	-3.2%	2.3%	13%	-6.4
CC1CCN(Cc2nnnn2CCCC(=O)N(C)C(C)c2ccccn2)CC1 (configuration not stated)	7%	5%	.	-2.8%	0.9%	-2%	-1.3
CCOC(=O)c1ccccc1NC(=O)Cc1c(C(=O)O)n(C)c2ccccc12	-3%	14%	-2.1	.	0.3%	15%	-3.3
COc1ccc(-c2[nH]ncc2CNCCn2cccn2)c(F)c1	13%	-3%	3.6	-19%	2.6%	-45%[inhibitor]	-4.0
Cc1cccn2c(=O)c3cc(C(=O)NCc4ccc(F)cc4)c(=N)n(CCCN4CCOCC4)c3nc12	7%	.	.	3.7%	-0.3%	44%	-4.1
Cc1ccc(C)c(OCCC(=O)Nc2cccc(S(=O)(=O)N3CCCCC3)c2)c1	-24%	.	.	-6.3%	0.3%	2%	3.5
CCOc1cc(C)c(Cl)cc1S(=O)(=O)N(C)C	-13%	12%	1.9	-2.4%	-1.9%	-7%	0.2
CC(C)(C)c1cc(C(=O)CCN2CCOCC2)cc(C(C)(C)C)c1O	12%	-9%	-8.1	-3.5%	7.6%	11%[15.4 µM]	0.7

No enrichment for hits. About 5.1% of those tested had a hit in this group.
